KCNQ2 enhance – KCNQ2 (rat) channel potentiation | CHO-K1 KCNQ2, FluxOR thallium flux fluorescence; active compounds read high | B-score at 10 µM | 0.54% of 310,000 active | AID 2239;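 active = fluorescence ratio B-score at least 3 SD of library B-scores, with initial fluorescence B-score within 3 SD, cut at about 5.3 in these data; same plate scores as AID 2156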;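 also: B-score of peak minus minimum over baseline fluorescence ratio after K+ and Tl+ stimulus; positive B-score means potentiation of KCNQ2 with more thallium influx and brighter signal; only the inactives scoring about 0 or higher are listed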
Target sequence (O88943 whole entry, looked up): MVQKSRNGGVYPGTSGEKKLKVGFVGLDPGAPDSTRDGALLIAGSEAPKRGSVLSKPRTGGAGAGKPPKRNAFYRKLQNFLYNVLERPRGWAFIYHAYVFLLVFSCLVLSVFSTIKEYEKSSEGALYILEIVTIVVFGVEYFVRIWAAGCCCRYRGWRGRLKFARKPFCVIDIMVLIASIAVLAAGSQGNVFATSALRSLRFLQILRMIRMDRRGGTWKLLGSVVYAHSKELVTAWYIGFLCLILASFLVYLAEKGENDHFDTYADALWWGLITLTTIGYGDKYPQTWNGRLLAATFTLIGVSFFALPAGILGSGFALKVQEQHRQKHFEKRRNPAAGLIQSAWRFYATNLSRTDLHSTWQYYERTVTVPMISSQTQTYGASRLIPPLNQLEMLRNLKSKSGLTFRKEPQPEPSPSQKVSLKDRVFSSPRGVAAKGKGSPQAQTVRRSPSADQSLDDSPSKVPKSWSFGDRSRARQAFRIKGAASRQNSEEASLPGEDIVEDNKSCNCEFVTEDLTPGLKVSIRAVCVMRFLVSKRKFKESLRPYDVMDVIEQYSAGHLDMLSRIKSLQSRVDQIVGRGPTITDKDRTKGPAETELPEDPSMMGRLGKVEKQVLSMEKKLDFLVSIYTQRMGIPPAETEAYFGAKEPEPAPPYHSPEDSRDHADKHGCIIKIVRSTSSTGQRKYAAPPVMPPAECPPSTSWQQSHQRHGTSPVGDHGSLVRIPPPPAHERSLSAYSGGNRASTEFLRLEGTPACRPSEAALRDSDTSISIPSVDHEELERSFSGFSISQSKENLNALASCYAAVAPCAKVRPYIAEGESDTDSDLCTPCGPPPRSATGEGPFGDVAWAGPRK
KCNQ2 enhance baseline – further read-out of KCNQ2 enhance, marked with its call; B-score; compound at 10 µM; measured here: initial fluorescence intensity artifact check;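 brightness before thallium and not channel activity; 0 = typical well and far values either way flag optical interference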
An asterisk follows results filed as active. A portion of the library; count on the stated rates, not on these rows.

For O=C(NCC(=O)N1CCCC1)c1ccc(Br)cc1 the results were KCNQ2 enhance 0.29 and KCNQ2 enhance baseline 1.1.
CCCCC(=O)Nc1cccc(-c2ccc3nncn3n2)c1 was read as KCNQ2 enhance 2.25 and KCNQ2 enhance baseline -2.91.
For COc1cc(C=O)c(Br)cc1OC1CCCC1 the results were KCNQ2 enhance 0.66 and KCNQ2 enhance baseline -0.26.
`O=C(CSc1nncc(=O)[nH]1)NC1CCCCC1` gave KCNQ2 enhance 2.28 and KCNQ2 enhance baseline 0.08.
Screening O=C(O)C1CC(=O)N(c2ccc(OCc3c(F)cccc3Cl)cc2)C1 (stereo not given) returned KCNQ2 enhance 0.02 and KCNQ2 enhance baseline 1.88.
O=C(NNC(=S)NCc1ccccc1)c1ccc(OC(F)F)cc1 was read as KCNQ2 enhance 0.23 and KCNQ2 enhance baseline 0.5.
Screening COC(=O)[C@]1(Cc2ccccc2)N[C@H](c2ccc(-c3ccc(OC)cc3)cc2)[C@@H]2C(=O)N(C)C(=O)[C@@H]21 returned KCNQ2 enhance 1.15 and KCNQ2 enhance baseline 0.01.
CCOC(=O)c1sc(=S)n(-c2ccccc2OC)c1N was read as KCNQ2 enhance 1.92 and KCNQ2 enhance baseline 0.68.
For Cc1ccc(OCCN2C(=O)NC3(CCc4ccccc4C3)C2=O)cc1 (stereo not given) the results were KCNQ2 enhance 0.28 and KCNQ2 enhance baseline -0.62.
Screening Cc1c(NC(=O)C(C)OC(=O)c2cccnc2)c(=O)n(-c2ccccc2)n1C (stereo not given) returned KCNQ2 enhance 0.08 and KCNQ2 enhance baseline -1.08.
`COC(=O)c1ccccc1NC(=O)Nc1ncccc1C` gave KCNQ2 enhance 0.79 and KCNQ2 enhance baseline -0.34.
CCCCc1cc(=O)oc2cc(OCC(=O)Nc3ccccn3)ccc12 was read as KCNQ2 enhance 0.04 and KCNQ2 enhance baseline -2.53.
Screening Cc1nnc(NC(=O)c2ccccc2Br)s1 returned KCNQ2 enhance 0.92 and KCNQ2 enhance baseline 1.82.
C#CCNc1cc(-c2ccccc2)nc2ncnn12 was read as KCNQ2 enhance 0.28 and KCNQ2 enhance baseline -0.03.
`CCN(C(=O)c1ccc2c(=O)n3c(nc2c1)CCCCC3)c1ccccc1C` gave KCNQ2 enhance 1.67 and KCNQ2 enhance baseline 0.02.
CCOC(=O)c1sc2nc(CC(=O)OC)nc(NCC(=O)OC)c2c1C was read as KCNQ2 enhance 1.88 and KCNQ2 enhance baseline 0.47.
Screening CCOC(=O)Cc1csc(NC(=O)/C=C\c2ccccc2Cl)n1 returned KCNQ2 enhance 1.13 and KCNQ2 enhance baseline 0.03.
Screening Cc1sc2nc(C(C)C)nc(SCC(=O)N3CCOCC3)c2c1C returned KCNQ2 enhance 12.2* and KCNQ2 enhance baseline -0.24*.
For Cn1c(=O)n(C)c2cc(/C=N/NC(=O)c3ccc(Cl)cc3Cl)ccc21 the results were KCNQ2 enhance 0.61 and KCNQ2 enhance baseline -1.75.
For Cc1ccc(NC(=O)CCC(=O)OCC(=O)c2ccc(Oc3ccc([N+](=O)[O-])cc3)cc2)cc1C the results were KCNQ2 enhance 0.04 and KCNQ2 enhance baseline 0.01.
Screening COc1ccccc1OCCCCN1CCCCC1 returned KCNQ2 enhance 0.04 and KCNQ2 enhance baseline 0.02.
Screening Cc1cc(C)nc(NS(=O)(=O)c2ccc(NC(=O)c3cc4c(=O)n5cccc(C)c5nc4n3C)cc2)n1 returned KCNQ2 enhance 0.96 and KCNQ2 enhance baseline 0.66.
CCOP(=O)(OCC)C1NC(=O)N(c2ccccc2)C1=O (stereo not given) was read as KCNQ2 enhance 0.49 and KCNQ2 enhance baseline -0.98.
Screening CCNC(=S)Nn1cnc2ccccc21 returned KCNQ2 enhance 0.03 and KCNQ2 enhance baseline 0.06.
Screening COc1cc(/C=N/NC(=O)CSCc2ccc([N+](=O)[O-])cc2)cc(OC)c1OC returned KCNQ2 enhance 1.61 and KCNQ2 enhance baseline 1.2.
Screening O=C(CN1CCN(Cc2ccccc2)CC1)Nc1ccc(F)c(F)c1 returned KCNQ2 enhance 2.49 and KCNQ2 enhance baseline 0.02.
O=C(N/C(=C/c1ccc([N+](=O)[O-])cc1)C(=O)N1CCCC1)c1ccccc1 was read as KCNQ2 enhance 0.07 and KCNQ2 enhance baseline 1.4.
Nc1nonc1-n1nnc(C(=O)N/N=C/c2ccncc2)c1CSc1ccc(Cl)cc1 was read as KCNQ2 enhance 1.23 and KCNQ2 enhance baseline 0.17.
For Cc1ccc(NC2=C(Cl)C(=O)OC2OC(=O)c2ccc(C)cc2)cc1 (stereo not given) the results were KCNQ2 enhance 0.22 and KCNQ2 enhance baseline -0.75.
`O=C(NCc1cnn(-c2ccccc2)c1)C1CCC(=O)N(C2CC2)C1` (stereo not given) gave KCNQ2 enhance 0.89 and KCNQ2 enhance baseline -0.53.
CCOc1ccc(OCCCN(C)C)cc1 was read as KCNQ2 enhance 0.05 and KCNQ2 enhance baseline 0.12.
COc1ccc(NC(=O)CC2C(=O)NC3CCCCC3N2C(=O)c2ccc(F)cc2)cc1 (stereo not given) was read as KCNQ2 enhance 0.24 and KCNQ2 enhance baseline 1.22.
Screening CCCn1c(-c2nonc2N)nc2ccccc21 returned KCNQ2 enhance 0.03 and KCNQ2 enhance baseline -1.84.
For Cc1ccc(S(=O)(=O)CCC(=O)OCC(=O)c2c[nH]c3ccccc23)cc1 the results were KCNQ2 enhance 1.21 and KCNQ2 enhance baseline 0.02.
For CCCCNC(=O)C1CCN(Cc2ccc(OCc3ccccc3)c(OC)c2)CC1 the results were KCNQ2 enhance 0.77 and KCNQ2 enhance baseline -0.51.
Screening CN(CC(=O)Nc1ccc(Cl)c(C(F)(F)F)c1)C(=O)/C=C/c1ccco1 returned KCNQ2 enhance 0.47 and KCNQ2 enhance baseline -4.04.
For CSCCC(NS(=O)(=O)c1ccc2c(c1)OCCO2)C(=O)N(C)Cc1ccc(F)cc1 (stereo not given) the results were KCNQ2 enhance 0.09 and KCNQ2 enhance baseline -0.82.
CC(C)C[C@H](NC(=O)NCc1ccccc1Cl)C(=O)O was read as KCNQ2 enhance 0.48 and KCNQ2 enhance baseline -1.02.
Screening CC(=O)NC(CC(=O)Nc1cc(Cl)ccc1-n1cncn1)c1ccccc1 (stereo not given) returned KCNQ2 enhance 1.26 and KCNQ2 enhance baseline -0.29.
Screening COc1cc(NC(=S)NCCO)c(OC)cc1Cl returned KCNQ2 enhance 0.03 and KCNQ2 enhance baseline -2.02.
O=C(COc1ccc(Br)cc1Cl)NC(=O)NCc1ccccc1 was read as KCNQ2 enhance 1.57 and KCNQ2 enhance baseline -0.9.
For CCN1CCCC1CNC(=O)c1cc(N)ccc1OC (stereo not given) the results were KCNQ2 enhance 1.67 and KCNQ2 enhance baseline 0.39.
`O=C1NC(=S)S/C1=C\c1ccc2ccccc2c1` gave KCNQ2 enhance 11* and KCNQ2 enhance baseline 0.11*.
Screening CSCC[C@H](NC(=O)NCc1ccccc1F)C(=O)O returned KCNQ2 enhance 1.11 and KCNQ2 enhance baseline 0.8.
COc1cccc(OC)c1C(=O)NC(=S)Nc1ccc2oc(-c3ccncc3)nc2c1 was read as KCNQ2 enhance 0.96 and KCNQ2 enhance baseline 0.14.

Random excerpt: three entries already listed.
Screening CCCn1c(-c2nonc2N)nc2ccccc21 returned KCNQ2 enhance 0.03 and KCNQ2 enhance baseline -1.84.
For Cc1ccc(S(=O)(=O)CCC(=O)OCC(=O)c2c[nH]c3ccccc23)cc1 the results were KCNQ2 enhance 1.21 and KCNQ2 enhance baseline 0.02.
For CSCCC(NS(=O)(=O)c1ccc2c(c1)OCCO2)C(=O)N(C)Cc1ccc(F)cc1 (stereo not given) the results were KCNQ2 enhance 0.09 and KCNQ2 enhance baseline -0.82.

Additional structures.
Screening O=C1/C(=C/c2cccs2)NC(=S)N1C1CC1 returned KCNQ2 enhance 1.36 and KCNQ2 enhance baseline -0.18.
Cc1cc2occ(CC(=O)OCC(=O)Nc3sc4c(c3C#N)CCC(C)C4)c2cc1C (stereo not given) was read as KCNQ2 enhance 1.01 and KCNQ2 enhance baseline 0.67.
`O=C(NCc1c(Cl)cccc1Cl)c1ccc2nnsc2c1` gave KCNQ2 enhance 1.21 and KCNQ2 enhance baseline 1.24.
`Cc1c(Cl)cccc1NC(=S)NCC(c1cccnc1)N(C)C` (stereo not given) gave KCNQ2 enhance 0.42 and KCNQ2 enhance baseline 1.86.
COc1ccc(N(CC(=O)N/N=C(\C)c2ccccc2)S(=O)(=O)c2ccccc2)cc1 was read as KCNQ2 enhance 0.47 and KCNQ2 enhance baseline -0.1.
`C/C(=C/c1oc2ccc(O)cc2c1[N+](=O)[O-])N(C)C` gave KCNQ2 enhance 0.95 and KCNQ2 enhance baseline -0.43.
Screening O=C1c2ccccc2C2=Nc3ccccc3SC(c3ccc(Cl)cc3)C12 (stereo not given) returned KCNQ2 enhance 0.22 and KCNQ2 enhance baseline -0.17.
Fc1ccc(CSc2ncnc3nc[nH]c23)cc1 was read as KCNQ2 enhance 0.19 and KCNQ2 enhance baseline -0.82.
Screening CNc1nc(SCC(=O)Nc2ccc(Cl)c(Cl)c2)nc(N2CCOCC2)n1 returned KCNQ2 enhance 0.31 and KCNQ2 enhance baseline -0.37.
`CCOCCCNC(=O)c1ccccc1SC` gave KCNQ2 enhance 1.24 and KCNQ2 enhance baseline -0.42.
CC(C)c1cc(NCCCN2CCOCC2)n2c(nc3ccccc32)c1C#N was read as KCNQ2 enhance 0.6 and KCNQ2 enhance baseline -0.53.
`CC(C)(C)NS(=O)(=O)c1cnc(Cl)c(Cl)c1` gave KCNQ2 enhance 0.01 and KCNQ2 enhance baseline -1.66.
`CCCCN(C)S(=O)(=O)c1ccc(C(=O)Nc2nnc(-c3ccco3)o2)cc1` gave KCNQ2 enhance 0.03 and KCNQ2 enhance baseline -1.15.
`Cc1cccc(NC(=O)CSc2ncnc3nc[nH]c23)c1` gave KCNQ2 enhance 0.52 and KCNQ2 enhance baseline -0.07.
`Cc1cccc(CC(=O)N2CCN=C2SCc2ccc([N+](=O)[O-])cc2)c1` gave KCNQ2 enhance 1.32 and KCNQ2 enhance baseline 1.26.
`Cc1ccc(N2C(=O)N3[C@H](c4ccc(F)cc4)[C@@H]4C(=O)N(C5CCCCC5)C(=O)[C@@H]4[C@]3(Cc3ccccc3)C2=O)cc1` gave KCNQ2 enhance 0.06 and KCNQ2 enhance baseline -0.02.
`Cc1ccc(S(=O)(=O)CCC(=O)OCc2nc(N)nc(Nc3ccccc3C)n2)cc1` gave KCNQ2 enhance 1.29 and KCNQ2 enhance baseline 0.13.
`Cc1cc(C(=O)COC(=O)c2ccc(N)cc2)c(C)n1-c1c(C)n(C)n(-c2ccccc2)c1=O` gave KCNQ2 enhance 0.17 and KCNQ2 enhance baseline 1.33.
`Cc1ccc(OCCNC(=O)c2ccccc2N)cc1` gave KCNQ2 enhance 0.09 and KCNQ2 enhance baseline 1.5.
Screening COc1ccc2[nH]c(=O)c(CN(CCO)C(=O)c3ccccc3F)cc2c1 returned KCNQ2 enhance 0.85 and KCNQ2 enhance baseline -0.48.
N#Cc1cccc(NCC(=O)Nc2ccc3c(c2)OCCO3)c1 was read as KCNQ2 enhance 0.03 and KCNQ2 enhance baseline -0.31.
For CCN(CC)C(=O)c1ccc2c(=O)n(Cc3ccc4c(c3)OCO4)c(=S)[nH]c2c1 the results were KCNQ2 enhance 0.61 and KCNQ2 enhance baseline 0.02.
O=C(NCCCN1CCOCC1)Nc1ccc(Cc2ccc(NC(=O)NCCCN3CCOCC3)cc2)cc1 was read as KCNQ2 enhance 0.31 and KCNQ2 enhance baseline -0.65.
Screening Cn1c(N2CCC(C(N)=O)CC2)nc2c1c(=O)n(Cc1ccc(Cl)cc1)c(=O)n2C returned KCNQ2 enhance 0.05 and KCNQ2 enhance baseline 0.27.
Cn1c(CO)nc2c3ccccc3ccc21 was read as KCNQ2 enhance 1.19 and KCNQ2 enhance baseline -0.2.
For C/C(=N\NC(=O)C(O)c1ccccc1)c1cccnc1 (stereo not given) the results were KCNQ2 enhance 1.74 and KCNQ2 enhance baseline 0.02.
N#CC1(P(=O)(c2ccccc2)c2ccccc2)CCCC1 was read as KCNQ2 enhance 0.52 and KCNQ2 enhance baseline -0.28.
CCN1CCN(C(c2cccs2)C(C)NC(=O)CC(C)C)CC1 (stereo not given) was read as KCNQ2 enhance 0.54 and KCNQ2 enhance baseline 0.25.
Screening O=C(CCN1C(=O)S/C(=C\c2ccc(F)cc2)C1=O)Nc1ccc(O)cc1C(=O)O returned KCNQ2 enhance 0.71 and KCNQ2 enhance baseline 2.42.
For CC(=O)COC(=O)CCc1nc2ccccc2[nH]c1=O the results were KCNQ2 enhance 1.08 and KCNQ2 enhance baseline -1.22.

Reprinted from the results shown for reference:
N#CC1(P(=O)(c2ccccc2)c2ccccc2)CCCC1 was read as KCNQ2 enhance 0.52 and KCNQ2 enhance baseline -0.28.
CCN1CCN(C(c2cccs2)C(C)NC(=O)CC(C)C)CC1 (stereo not given) was read as KCNQ2 enhance 0.54 and KCNQ2 enhance baseline 0.25.
Screening O=C(CCN1C(=O)S/C(=C\c2ccc(F)cc2)C1=O)Nc1ccc(O)cc1C(=O)O returned KCNQ2 enhance 0.71 and KCNQ2 enhance baseline 2.42.
For CC(=O)COC(=O)CCc1nc2ccccc2[nH]c1=O the results were KCNQ2 enhance 1.08 and KCNQ2 enhance baseline -1.22.

Additional results.
O=C(Nc1ccc(F)cc1F)c1cc2n(n1)C(C(F)(F)F)C1CCCCC1N2 (stereo not given) was read as KCNQ2 enhance 1.07 and KCNQ2 enhance baseline 1.93.
COc1ccc(CC(=O)Nc2ccc(-c3cn4ccccc4n3)cc2)cc1OC was read as KCNQ2 enhance 0.37 and KCNQ2 enhance baseline -0.19.
Screening COc1ccc(-c2cn[nH]c2N)c(OC)c1 returned KCNQ2 enhance 0.55 and KCNQ2 enhance baseline 0.07.
COc1ccc(-c2c(C#N)c(N)nc3c2c(=O)n(C)c(=O)n3C)cc1 was read as KCNQ2 enhance 1.27 and KCNQ2 enhance baseline -1.11.

Screening data (PubChem BioAssay)
